High-throughput results: PubChem BioAssay, Southern Research Institute
Mtb H37Rv: Mycobacterium tuberculosis H37Rv growth inhibition, putative kinase inhibitor library, confirmatory dose response (AID 2842) | M. tuberculosis H37Rv growth inhibition; higher % means a stronger effect; some inactives read as strong as hits | actives 5.2% (n = 24,000) | inhibition, % at 10 µg/mL, or IC90 in µg/mL where a hit was titrated;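 active means confirmed in a dose series; inconclusive means mostly over 85% at the one dose but not retested; inactive means below 85% or not confirmed; about a fifth of its hits are not listed in these tables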;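 further: bacteria incubated one week before Alamar blue readout; 0% = bacteria only wells and 100% = bacteria with high antibiotic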
Numbers without * were called inactive; u = inconclusive. Some of the compounds tested; the hit share may differ from the screen's.

Structure	Mtb H37Rv
Cc1[nH]c2ccc(N(C)C)cc2c(=O)c1CN1CCOCC1	-1.3%
Cc1ccc2cc(CCNC(=S)Nc3ccc(I)cc3)c(=O)[nH]c2c1C	7.8%
CCOc1ccc2c(c1)c(=O)c(C(=O)c1ccc(OC)cc1)cn2Cc1cccc(C)c1	2.9%
O=C(CC(NCc1ccccc1)C(=O)O)Nc1cccc([N+](=O)[O-])c1 (stereo not drawn)	-2.3%
Cc1ccc(-c2nnc3ccc(SCC(=O)N4CCOCC4)nn23)cc1	-4.9%
COc1ccc(-c2oc3ccccc3c(=O)c2OCC(N)=O)cc1	-6.4%
Cc1ccc(NC2CC(=O)N(CCc3ccccc3)C2=O)cc1 (stereo not drawn)	11.7%
COc1ccc(C(=O)Nc2nc3ccc(NC(C)=O)cc3s2)cc1	-1.5%
COC(=O)c1ccsc1NC(=O)CC1SC(N)=NC1=O (stereo not drawn)	-0.6%
COc1ccc(NC(=O)NC2CC(=O)N(c3ccc(Cl)cc3)C2)cc1 (stereo not drawn)	13.0%
Cc1ccc(Cn2c(N3CCN(Cc4cc(C)ccc4C)CC3)nc3c2c(=O)[nH]c(=O)n3C)cc1	-2.6%
CCOc1ccc(NS(=O)(=O)c2c[nH]c(=O)[nH]c2=O)cc1	-16.3%
O=C(CSc1nc2c(c(=O)n1-c1ccc(F)cc1)SCC2)NCC1CCCO1 (stereo not drawn)	2.0%
COc1ccc2nc(-c3ccc(NC(=O)c4cccc(C(F)(F)F)c4)cc3)cn2n1	4.4%
COc1ccc(/C=C/C(=O)Nc2nnc(-c3ccc(Cl)cc3)s2)cc1OC	-6.7%
O=C(Nc1nccs1)c1cn(-c2ccccc2)nc1-c1cc2ccccc2oc1=O	-24.4%
CCOc1ccc2c(c1)O/C(=C\c1ccc(OC(=O)N3CCOCC3)cc1)C2=O	-12.4%
Cc1ccc(C(=O)c2cn(Cc3cccc(C)c3)c3cc4c(cc3c2=O)OCCO4)cc1	84.9%
Fc1ccc(Cn2cc3c(-c4ccc(F)cc4)nnc-3c3cc4c(cc32)OCO4)cc1	1.4%
O=C(Nc1nnc(-c2ccncc2)o1)c1ccccc1[N+](=O)[O-]	-1.6%
CCCc1cc(=O)[nH]c2nnc(SCC(=O)Nc3ccc(C)c(Cl)c3)n12	-8.5%
CCOc1ccccc1C(=O)Nc1cc(-c2cn3nc(OC)ccc3n2)ccc1F	-2.8%
COc1ccc2nc(-c3ccc(F)c(NC(=O)C4CC4)c3)cn2n1	0.4%
O=C(O)c1ccccc1NC1=C(Cl)C(=O)N(c2cccc(Cl)c2)C1=O	21.3µg/mL*
COc1ccc2cc(CCNC(=O)c3ccccc3C)c(=O)[nH]c2c1	8.4%
COc1ccc(Cl)c2sc(NC(=O)c3ccc(S(=O)(=O)N(C)C)cc3)nc12	-4.8%
CS(=O)(=O)c1ccc2nc(NC(=O)c3ccc4c(c3)CCCC4)sc2c1	2.7%
COc1ccc(S(=O)(=O)Nc2cccc(-c3nc4cccnc4s3)c2)cc1F	-9.5%
O=C(Nc1nnc(-c2ccc(Cl)cc2Cl)s1)c1ccccc1	3.3%
COc1ccccc1C(=O)Nc1nc2ccc3nc(C)sc3c2s1	4.0%
Cc1ccc(S(=O)(=O)Nc2ccc(-n3c(C)nc4ccccc4c3=O)cc2C)cc1	-4.9%
Cc1ccc(C(=O)Nc2nnc(-c3ccc(Cl)cc3Cl)s2)cc1[N+](=O)[O-]	6.4%
Cn1c(=O)c2c(SCC(=O)Nc3ccc(C(F)(F)F)cc3)nc(-c3ccco3)nc2n(C)c1=O	-2.8%
CCOC(=O)c1nn(-c2ccc(C)cc2)c(=O)c2c(NC(=O)COc3ccc4ccccc4c3)scc12	-8.2%
CCN(CC)C(=O)/C=C/c1ccc(-c2cccc([N+](=O)[O-])c2)o1	11.9%
CC(Sc1nnc(NC(=O)c2cc3ccccc3oc2=O)s1)c1ccccc1 (stereo not drawn)	89.1%
COc1ccccc1C(=O)Nc1nnc(-c2ccccc2C)s1	44.4%
COC(=O)c1c(NC(=O)c2ccc(C#N)cc2)sc2c1CC(C)(C)NC2(C)C	-1.9%
CCN(Cc1ccccc1)S(=O)(=O)c1ccc(C(=O)Nc2nnc(C)o2)cc1	u
Nc1ncnc(Oc2ccccc2)c1[N+](=O)[O-]	9.0%
COc1cccc(C(=O)COC(=O)c2cc(=O)[nH]c3ccccc23)c1	-10.3%
O=C1N=c2ccccc2=C1c1sc(=S)n(-c2ccc(O)cc2)c1O	-4.2%
O=C(CSc1nc2c(c(=O)n1-c1ccc(F)cc1)SCC2)Nc1ccc2c(c1)OCCO2	0.4%
CN1C(=O)c2cccc(NC(=O)c3ccco3)c2C1=O	-2.6%
CCOC(=O)c1nn(-c2ccccc2)c(=O)c2c(NC(=O)c3cc(C)cc(C)c3)scc12	-2.6%

(continued)
molecule	Mtb H37Rv
CCOC(=O)c1c(NC(=O)CCN2C(=O)c3cccc4cccc(c34)C2=O)sc2c1CCC2	-1.7%
COc1ccc(-n2c(SCC(=O)Nc3cc(C)on3)nnc2-c2c[nH]c3ccccc23)cc1	6.3%
CC(=O)c1cccc(-n2c(O)c(C3=c4cc(F)ccc4=NC3=O)sc2=S)c1	-9.0%
Cc1cccc(NC(=O)CSc2nc3[nH]ncc3c(=O)[nH]2)c1	-11.8%
COc1ccc(C(=O)NNc2nc3c(OC)cccc3s2)cc1	5.0%
COc1cccc(-c2nnc(NC(C)=O)o2)c1	80.9%
OCCN1CCN(c2ncnc3sc4c(c23)CCCC4)CC1	-9.2%
O=C(Nc1ccc2c(c1)N(S(=O)(=O)c1cccs1)CCC2)c1ccc([N+](=O)[O-])cc1Cl	-14.0%
COc1ccc(OC)c(NC(=O)CSc2nc3[nH]ncc3c(=O)[nH]2)c1	-6.7%
Cc1cc(NC(=O)Cn2cnc3c(cnn3-c3ccccc3)c2=O)no1	0.0%
CCS(=O)(=O)c1cccc(C(=O)Nc2nc3c(OC)ccc(C)c3s2)c1	8.0%
CC(=O)N1CCc2c(sc(NC(=O)CN3C(=O)c4ccccc4C3=O)c2-c2nc3ccccc3s2)C1	-4.8%

Sorted by count of non-hydrogen atoms (lowest first): part of the list above.
molecule	Mtb H37Rv
COc1cccc(-c2nnc(NC(C)=O)o2)c1	80.9%
Cc1cccc(NC(=O)CSc2nc3[nH]ncc3c(=O)[nH]2)c1	-11.8%
Cc1cc(NC(=O)Cn2cnc3c(cnn3-c3ccccc3)c2=O)no1	0.0%

Continued:
molecule	Mtb H37Rv
CN(C(=O)Cc1ccccc1)c1nnc(C23CC4CC(CC(C4)C2)C3)s1	2.3%
Cc1cccc(NC(=O)COc2cccc3c2CCN(Cc2ccc(F)cc2)C3=O)c1	38.8%
COCCn1c(=S)[nH]c2cc(C(=O)NCCc3ccccc3)ccc2c1=O	-6.6%
COc1cccc(-n2c(SCC(=O)Nc3ccccc3F)nc3c(oc4ccccc43)c2=O)c1	2.2%
Cc1ccc(C=C2C(=O)NC(=O)NC2=O)cc1	-3.8%
COC(=O)CSc1nnc(CNC(=O)c2cccs2)n1-c1cccc(C)c1	-12.3%
O=C(/C=C/c1cccs1)Nc1nc2c(cc3c4c(cccc42)CC3)s1	7.2%
Cn1c(=O)[nH]c(=O)c2c1nc(SCCN1CCOCC1)n2CCCc1ccccc1	2.0%
CCCCc1ccc(NCCn2c(C)c(C)n3c4c(=O)[nH]c(=O)n(C)c4nc23)cc1	12.6µg/mL*
CCc1ccccc1-n1c(SCC(=O)Nc2cc(C)on2)nc2[nH]ncc2c1=O	-1.1%
O=C(O)c1ccc(Nc2nncc(=O)[nH]2)cc1	-9.4%
Nc1nc(SCC(=O)Nc2ccc3c(c2)OCO3)[nH]c(=O)c1NC(=O)c1ccc(F)c(F)c1	2.2%

A different layout for 2 compounds above:
Molecule: COc1cccc(-n2c(SCC(=O)Nc3ccccc3F)nc3c(oc4ccccc43)c2=O)c1
  Mtb H37Rv: 2.2%

Molecule: CCc1ccccc1-n1c(SCC(=O)Nc2cc(C)on2)nc2[nH]ncc2c1=O
  Mtb H37Rv: -1.1%

Continued:
molecule	Mtb H37Rv
CC(=O)c1ccc(N2C(=O)C=CC2=O)cc1	-38.7%
Cc1ccc2nc(NNC(=O)c3cccc(F)c3)sc2c1	7.65µg/mL*
Cc1ccc(-c2nnc(NC(=O)c3ccc(C(=O)c4ccccc4)cc3)s2)cc1	6.4%
O=C(CN1C(=O)S/C(=C\c2ccccc2)C1=O)c1ccccc1	4.0%
CCc1nnc(NC(=O)c2ccc(OC)cc2OC)s1	12.7%
O=C(Nc1cc2c3c(c1)CCC(=O)N3CCC2)c1cc(Cl)ccc1Cl	63.3%
Cc1ccc(-c2nc3c(c(SCC(N)=O)n2)Cc2cc(C)ccc2O3)cc1	-5.9%
COc1ccc(C2=Nn3c(nnc3-c3ccccc3)SC2)cc1	9.7%
O=C(O)CCN1C(=O)/C(=C/c2ccc(-c3nc4ccccc4s3)o2)SC1=S	-12.3%
CCOc1ccc2c(c1)c(=O)c(S(=O)(=O)c1ccc(F)cc1)cn2Cc1cccc(C)c1	3.8%
O=C(CSc1nnc2ccc(-c3ccc4c(c3)OCO4)nn12)c1ccccc1	-10.9%
Cc1nc2sc(C(c3cccc(F)c3)N3CCCCC3)c(O)n2n1 (stereo not drawn)	9.1%
COC(=O)c1ccsc1NC(=O)c1cccs1	-6.3%
CCCCC(=O)Nc1nc2ccc3nc(C)sc3c2s1	21.9%
COc1cccc(N2CC(NS(=O)(=O)c3cccnc3)CC2=O)c1 (stereo not drawn)	23.4%
O=C(Nc1c(C(=O)Nc2ccc(F)c(F)c2)oc2ccccc12)c1ccc(-c2ccccc2)cc1	6.1%
COc1ccc(CC2S/C(=N/N=C/c3ccccc3)NC2=O)cc1 (stereo not drawn)	-3.7%
COc1cc(C(=O)Nc2cc3c4c(c2)CCN4C(=O)CC3)cc(OC)c1OC	2.5%
CCN1CCN(c2nc(Nc3cc(C)ccc3C)c3nccnc3n2)CC1	5.2%
Cc1nc(SCc2cccc(Oc3ccccc3)c2)n[nH]1	12.4%
Cc1ccc(CNc2nc3c(S(=O)(=O)c4ccc(C)cc4C)nnn3c3ccccc23)cc1	-3.8%
O=C(Cc1cccc2ccccc12)Nc1nnc(-c2ccc(F)cc2)s1	25.3%
COc1ccccc1-c1nnc(NC(=O)Cc2ccc(S(C)(=O)=O)cc2)o1	-8.2%
O=C1CCc2cc(S(=O)(=O)NCc3ccccc3Cl)cc3c2N1CC3	-5.9%
CCOc1cccc(-c2cc(C(=O)N=Nc3c(O)[nH]c4ccccc34)[nH]n2)c1	0.4%
COC(=O)c1c(NC(=O)C2CC(=O)NN2Cc2ccccc2)sc2c1CCCC2 (stereo not drawn)	62.0%
O=C(CNC(=O)c1ccco1)N/N=C/c1ccccc1Cl	-6.9%
CN(C)S(=O)(=O)c1ccc(C(=O)NC2CC(=O)N(c3ccc(Cl)cc3)C2)cc1 (stereo not drawn)	8.5%
COc1ccc(C(=O)Nc2ncc(Cc3ccc(F)cc3)s2)cc1OC	0.8%
Cc1ccc(C)c2[nH]c(=O)c(CCNC(=O)/C=C\c3ccc4c(c3)OCO4)cc12	9.3%
COCCn1c(SCC(=O)c2ccc(Cl)cc2)nc2c([nH]c3ccccc32)c1=O	8.2%
Cc1ccc(N=Cc2c(NCc3ccco3)nc3c(C)cccn3c2=O)cc1	-7.1%
COC(=O)c1ccc2c(c1)C1CC(C)(O2)N(c2ccc(F)cc2)C(=O)N1 (stereo not drawn)	-6.7%
C=CCn1c(NCCCOCC)nc2c1c(=O)[nH]c(=O)n2C	-13.4%
O=C(NCCc1ccc(F)cc1)C(=O)Nc1cc2c3c(c1)CCC(=O)N3CCC2	-3.5%
CC(=O)c1cccc(N=C(C#N)C2=C(O)c3ccccc3C2=O)c1	-1.7%

Of the compounds above, these contain a cyano group.
molecule	Mtb H37Rv
COC(=O)c1c(NC(=O)c2ccc(C#N)cc2)sc2c1CC(C)(C)NC2(C)C	-1.9%
CC(=O)c1cccc(N=C(C#N)C2=C(O)c3ccccc3C2=O)c1	-1.7%

(listing goes on)
molecule	Mtb H37Rv
CCOC(=O)N1CCN(C(=O)CSc2nc3c([nH]c4ccccc43)c(=O)n2-c2cccc(C(F)(F)F)c2)CC1	14.3%
O=C(Nc1nnc(-c2ccc(Br)cc2)o1)c1ccc(Cl)cc1	72.8%
COc1ccc(CNc2nc3c(c(=O)[nH]c(=O)n3C)n2Cc2ccccc2C)cc1	-4.5%
COc1cc(C(=O)Nc2nc(-c3ccc4c(c3)OCO4)cs2)cc(OC)c1OC	-14.8%
O=c1cnnc(N/N=C/c2ccc(O)cc2O)[nH]1	45.3%
CCOC(=O)CCC(=O)Nc1c(C(=O)Nc2ccc(Cl)cc2)oc2ccccc12	-0.8%
COc1ccc2nc(Nc3cccc(Cl)c3)sc2c1	23.2%
NC(=O)c1c(NC(=O)c2ccc3ncsc3c2)sc2c1CCN(Cc1ccccc1)C2	4.6%
Cc1ccccc1-c1nnc(NC(=O)c2cc(Cl)ccc2Cl)s1	-13.1%
O=C1CCc2cc(NS(=O)(=O)c3cc(F)ccc3F)cc3c2N1CC3	-7.6%
COc1cc(OC)cc(C(=O)Nc2cc(-c3cn4nc(OC)ccc4n3)ccc2C)c1	10.3%
COc1ccc(Cn2cc3c(-c4ccc(C)cc4)nnc-3c3cc(OC)ccc32)cc1	-4.8%
CSc1ccc2nc(Nc3ccc4c(c3)OCCO4)sc2c1	-14.8%
COc1ccc(-c2ccc(/C=C3/SC(N4CCOCC4)=NC3=O)o2)cc1	0.7%
Cc1ccc(C)c(-c2csc(NC(=O)c3ccc([N+](=O)[O-])s3)n2)c1	3.37µg/mL*
COc1ccc(OC)c2[nH]c(=O)c(CCNC(=O)c3ccc(-c4ccccc4)cc3)cc12	0.5%
CCc1nc(SCc2ccc([N+](=O)[O-])cc2)c2c(=O)n(C)c(=O)n(C)c2n1	-14.3%
O=C(CCS(=O)(=O)c1ccc(F)cc1)Nc1cccc(-c2nc3ccccc3[nH]2)c1	1.8%
CC1=NC2C=CC(Cl)=CC2C(c2ccccc2)=C1C(=O)/C=C/c1nc2ccccc2[nH]1 (stereo not drawn)	0.73µg/mL*
